High-throughput results: PubChem, several laboratories
HNF4A DNA FP: change in binding of human HNF4 alpha to DNA; P41235; HNF4a-FITC DNA binding, fluorescence polarization, 1 h; activity change, % at 10 µM; 360,000 compounds, 0.3% hits; in the data active = activity change above about 30%, passing the limit was not always enough;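 note: controls were the assay level and a saturating level of protein; the project sought stronger binding though the title names inhibitors; some compounds called inactive have numbers as strong as hits; positive values seem to mean higher polarization but the record does not say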
Target sequence (P41235 whole entry, looked up): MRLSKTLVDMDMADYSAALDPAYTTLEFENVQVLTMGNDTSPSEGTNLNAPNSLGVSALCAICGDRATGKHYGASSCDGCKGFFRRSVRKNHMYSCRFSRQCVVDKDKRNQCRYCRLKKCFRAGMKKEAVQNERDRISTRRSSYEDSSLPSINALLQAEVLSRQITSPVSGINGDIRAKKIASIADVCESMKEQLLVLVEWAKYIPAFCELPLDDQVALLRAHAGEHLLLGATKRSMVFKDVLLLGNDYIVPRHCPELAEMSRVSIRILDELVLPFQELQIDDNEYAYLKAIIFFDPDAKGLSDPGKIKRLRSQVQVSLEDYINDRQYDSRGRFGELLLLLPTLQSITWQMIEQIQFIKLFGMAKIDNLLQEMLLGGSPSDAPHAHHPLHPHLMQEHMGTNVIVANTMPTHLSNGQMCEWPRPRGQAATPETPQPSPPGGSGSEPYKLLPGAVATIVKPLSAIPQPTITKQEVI
Ecoli growth: inhibitors of Escherichia coli growth | OD600, 23 h; stronger effect = lower value | 330,000 compounds, 0.21% hits | OD600 absorbance (concentration not given with the values) | AID 1053175;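 active = OD600 absorbance below the run mean of sample wells minus 3.6 SD, in any replicate, cut at about 0.56 in these data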;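 note: stock transfer was 300 nL into about 60 µL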
ALR inh: human ALR oxidase inhibition via reduced H2O2; inhibition, % (concentration not given with the values); 290,000 compounds, 3.8% hits; purified ALR, DTT oxidation, H2O2 HRP-luminol luminescence;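 active = mean and each replicate at 75% or more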;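 note: stock transfer was 7.5 nL into about 7.5 µL; 0% = neutral wells and 100% = wells with inactivated enzyme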
UCH37 DUB inh: blocks the human deubiquitinase UCH37 | purified proteasome/UCH37, Ub-AMC cleavage fluorescence | inhibition, % (concentration not given with the values) | 330,000 compounds, 0.33% hits;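 active = mean of two replicates above 20%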;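 note: 0% = compound-free wells with enzyme and 100% = wells lacking proteasome; stock transfer was 100 nL into about 20 µL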
Target sequence (Q9Y5K5 whole entry, looked up): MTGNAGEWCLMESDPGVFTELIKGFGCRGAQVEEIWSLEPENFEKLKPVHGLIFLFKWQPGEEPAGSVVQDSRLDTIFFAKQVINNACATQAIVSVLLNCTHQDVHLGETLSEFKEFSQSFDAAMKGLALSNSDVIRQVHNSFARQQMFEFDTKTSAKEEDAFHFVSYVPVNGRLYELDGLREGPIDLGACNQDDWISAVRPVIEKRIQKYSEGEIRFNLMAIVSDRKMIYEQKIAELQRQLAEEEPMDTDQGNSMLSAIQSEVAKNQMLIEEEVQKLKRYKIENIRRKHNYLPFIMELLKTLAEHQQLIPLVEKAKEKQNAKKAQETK
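Assay system: Proteasome-bound UCH37. Buffer or medium: pH 7.4 Tris-HCl (50 mM) with ovalbumin, ATP-MgCl2, DTT. Incubation: 30 min preincubation with enzyme, 25 min cleavage at room temperature. Measured by: fluorescence, ex 355 nm, em 460 nm. Read-out basis: percent inhibition. Control set: wells without proteasome as full block, compound-free enzyme plus substrate as uninhibited.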
LANA-H2B inh: blocks KSHV LANA binding to histone H2A/H2B | 320,000 compounds, 0.6% hits | inhibition, % (test concentration not listed) | cell-free LANA-H2A/H2B peptide, fluorescence polarization | Q9QR71; in the data active = inhibition mostly above about 10%, no sharp cut-off; inactive = mostly below about 6.7%;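 note: stock transfer was 7.5 nL into about 10 µL; 0% = median of vehicle wells and 100% = median of positive control wells; one replicate is shown; the record names a cut of 25% in any replicate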
FGF22 binding: binders of recombinant human FGF22 by thermal shift. Q9HCT0. SYPRO orange fluorescence; percent of sucrose octasulfate shift, DMSO zero. calls only at 9.99 µM. 340,000 compounds, 1.5% hits;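 active = melting point raised past a set limit in the mean and every replicate; three in four hits are not shown here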
Target sequence (Q9HCT0 whole entry, looked up): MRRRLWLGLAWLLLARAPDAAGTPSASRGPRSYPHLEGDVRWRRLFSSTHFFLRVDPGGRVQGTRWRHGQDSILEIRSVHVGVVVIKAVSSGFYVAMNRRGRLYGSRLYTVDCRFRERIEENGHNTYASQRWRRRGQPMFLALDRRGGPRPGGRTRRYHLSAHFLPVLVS
B2AR ag: agonists of human beta-2 adrenergic receptor inducing internalization; P07550; 340,000 compounds, 0.43% hits; Am2.2-beta2AR cells, FAP receptor internalization, flow cytometry; reference of the scale not given here; AID 504454; response, % (no concentration beside the values);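 active = response above a set limit, near 3 SD of response in nonfluorescent compounds, cut at about 42% in these data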;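 note: stock transfer was 100 nL into about 11 µL; a reference agonist was the positive control; negative values mostly stem from fluorescent compounds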
An asterisk follows results filed as active; i = inactive; / = not tested or not shown. Some of the compounds tested; rates above refer to the full screens.

canonical_smiles,HNF4A DNA FP,Ecoli growth,ALR inh,UCH37 DUB inh,LANA-H2B inh,FGF22 binding,B2AR ag
Cc1cc(C(=O)Nc2ccc(C)c(S(=O)(=O)N3CCOCC3)c2)c2ccccc2n1,-0.3,0.68,-1,3.9,-2.8,i,4
COc1cc2c(c(O)c1OC)C(=O)C(OC)CCC2 (centres undefined),0.3,0.7,-3,2.5,0.0,/,-6
COc1cccc(CN2C(=O)C(C)N(C(=O)c3c(F)cccc3F)c3ccccc32)c1 (centres undefined),1.7,0.66,/,4.2,6.9,i,21
NS(=O)(=O)c1ccc(NC(=O)c2cccc(N3C(=O)c4ccccc4C3=O)c2)cc1,49,/,/,/,7.1,i,85*
CCOC(=O)c1ccc(NC(=O)/C=C/c2cccs2)cc1,-4.9,0.64,2,1.1,1.7,i,1
COc1cccc(C2CNC3(CCCC(C)C3)c3[nH]c4ccccc4c32)c1OC (centres undefined),1.4,0.61,56,4.6,1.6,i,6
Cc1noc(C)c1NC(=O)N(C)C[C@H]1Oc2c(NC(=O)c3ccncc3)cccc2C(=O)N([C@H](C)CO)C[C@@H]1C,1.3,/,0,1.3,4.5,i,13
OC(CNCC#Cc1ccccc1)c1ccccc1 (centres undefined),-1.5,0.65,-4,4.4,0.1,i,-4
CC[N+]1(C)[C@@H]2CC[C@H]1CC(OC(=O)[C@H]1CCC(C(=O)OC3C[C@H]4CC[C@@H](C3)[N+]4(C)CC)(c3ccccc3)c3ccccc31)C2 (some centres undefined),3.9,/,1,-0.1,-2.0,i,5
O=C(Nc1ccc([N+](=O)[O-])cc1)C1C(c2ccccc2)=C1c1ccccc1,-1.7,0.73,-8,4.3,18*,i,6
Cn1c(NC(=O)c2ccc(C(C)(C)C)cc2)cc(=O)n(C)c1=O,1.5,0.74,-2,5.0,0.3,i,3
CC(C)C[C@@H]1NC(=O)[C@H](Cc2ccccc2)N(C)C(=O)[C@H](C)NC(=O)c2ccccc2NC(=O)[C@H](Cc2ccc(O)cc2)N(C)C1=O,-2.0,0.73,4,3.0,-6.4,i,-1
CCCCNC(=S)NNC(=O)c1csc(CC)c1,1.4,0.72,/,2.0,-1.7,/,4
CCN1CCc2c(sc(NC(=O)COc3ccccc3)c2C(=O)OC)C1,4.3,0.69,53,0.6,1.6,i,23
CCOc1cc2[nH]c(=S)n(Cc3ccc(C(=O)NCC(OC)OC)cc3)c(=O)c2cc1OCC,0.9,0.78,1,-3.0,4.9,/,2
COC(=O)c1ccccc1NC(=O)CSc1nnc(CNS(=O)(=O)c2ccc(C)cc2)n1C,0.3,0.7,/,0.0,/,/,5
COc1ccc(OC)c(NC(=O)CCCC(=O)NC2CCCCC2)c1,-1.0,0.7,-3,2.5,5.1,i,7
CC(C)(C)NC(=O)COC(=O)c1ccc(Cl)c(S(N)(=O)=O)c1,2.0,0.64,/,2.9,-1.4,i,5
CCC1Oc2ccccc2N(Cc2ccccc2C)C1=O (centres undefined),2.0,0.69,-22,0.5,6.5,/,8
CCCOC(=O)c1ccc(NC(=O)c2cc(Cl)ccc2OC)cc1,2.3,0.74,-2,-5.3,7.8,i,-4
COCc1nnc(NC(=O)c2ccc(S(=O)(=O)N(CC(C)C)CC(C)C)cc2)o1,-1.1,0.7,95*,4.3,-2.6,i,30
CC(=O)Nc1ccc(S(=O)(=O)N2CCC(N3CCCCCC3)CC2)cc1,1.7,0.69,-3,0.9,2.4,i,11
Cc1c(C(=O)N2CCCc3ccccc32)oc2ccccc12,2.1,0.68,2,5.6,-10,i,-3
Cc1onc(C(=O)NN)c1-c1csc(COc2ccccc2)n1,1.5,0.68,-2,0.4,5.1,i,6
C=C[C@@H]1c2ccccc2N(S(=O)(=O)c2ccc(C)cc2)[C@H](c2ccc(OC(C)=O)cc2)C1(C#N)C#N,-1.5,/,-5,0.4,7.3,i,10
Cc1ccccc1NC(=O)CSc1ccc2nnc(-c3ccccn3)n2n1,-0.5,0.7,-2,1.4,-5.1,i,-8
COc1ccc(S(=O)(=O)N2CCCCC2)cc1NS(=O)(=O)c1ccccc1,-0.2,0.7,3,0.4,2.1,i,0
COc1ccc(OC)c(S(=O)(=O)N2CCC(C(=O)N3CCc4ccccc4C3)CC2)c1,-1.7,0.76,-4,1.5,-1.9,/,12
O=C(c1cc(=O)[nH]c2ccccc12)N1CCN(S(=O)(=O)c2ccc3ccccc3c2)CC1,3.0,0.71,-6,-2.4,-0.2,/,0
O=C(Cc1ccsc1)Nc1ccccc1F,3.5,/,-10,/,0.1,i,-2
COc1cc2ccccc2ccc1=NO,-5.5,0.66,/,7.8,/,i,2
CCOC(=O)/C(C#N)=C/Nc1cc(OC)ccc1OC,-5.1,0.69,-12,-25,-2.0,i,2
O=C(N/C(=C\c1ccc(Br)cc1)C(=O)N1CCOCC1)c1ccc([N+](=O)[O-])cc1,-2.7,0.65,-6,2.7,4.8,i,-12
CC(C)(C)OC(=O)CNC(=O)c1[nH]cnc1C(=O)NCCCCCN,6.5,0.7,-1,4.8,-6.3,i,0
Cc1cc2c(NC(=O)Nc3ccccc3)cccc2nn1,6.3,0.71,/,3.2,-8.8,i,-16
COc1ccc(CCn2c(NN=C(C)C)nc3c2c(=O)[nH]c(=O)n3C)cc1,4.1,/,-29,/,-7.2,i,3
O=C(c1cc(-c2ccc(Cl)cc2Cl)on1)N1CCN(C(=O)c2ccco2)CC1,3.4,0.71,13,1.2,3.0,/,-9
O=S(=O)(Nc1ccc(Cl)cn1)c1cccc(S(=O)(=O)c2ccccc2)c1,0.5,0.63,-1,0.3,9.5,i,8
COc1ccccc1CNC(=O)COc1ccc([N+](=O)[O-])cc1,3.0,0.7,4,6.6,0.0,i,1
CN(C)C=NC(=O)c1cccn1-c1ncc(C(F)(F)F)cc1Cl,2.0,0.65,-10,1.5,2.9,i,6
CCc1ccc(N2C(=O)C(Cl)=C(N3CCOCC3)C2=O)cc1,4.3,0.7,4,3.4,0.1,i,-1
CCOC(=O)c1cnc(-c2ccccc2)nc1Oc1ccc(C)cc1,-4.6,0.71,-4,11,-2.8,/,2
Cc1ccc(Cn2ncc3c(NCCCN4CCOCC4)ncnc32)cc1,3.3,0.74,-26,-1.3,-2.7,/,-2
CCCNC(=O)N1CCC(C(=O)c2ccc(Cl)cc2)CC1,1.0,0.66,-3,-0.3,1.9,/,-3
Cc1cc(C(=O)N2CCN(Cc3ccccc3)CC2)ccc1[N+](=O)[O-],-2.3,0.7,-1,2.5,-0.6,i,6
Cc1ccc(O)c(C(=O)C=Cc2ccccc2)c1,2.2,/,/,/,/,i,7
CCCC(=O)N(C)c1nnc(-c2ccc(OC)cc2)s1,-0.5,0.7,-2,1.7,-2.8,/,-9
COc1ccc(NC(=O)c2c(-c3c(Cl)cccc3Cl)noc2C)c(OC)c1,-0.2,0.7,0,4.6,-1.0,i,0
C=C1C(=O)O[C@H]2[C@H]1[C@H](OC(=O)/C(C)=C\C)C[C@]1(CO1)[C@@H]1[C@H](OC(C)=O)C=C(C)[C@]21O,-2.6,/,/,/,/,i,1
Cc1ccc(S(=O)(=O)N2CCOCC2)cc1NC(=O)COc1cccc(Oc2ccccc2)c1,3.3,0.73,0,3.6,-0.9,i,-15

Exported field by field: entries from further up.
CN(C)C=NC(=O)c1cccn1-c1ncc(C(F)(F)F)cc1Cl
  HNF4A DNA FP: 2.0 | Ecoli growth: 0.65 | ALR inh: -10 | UCH37 DUB inh: 1.5 | LANA-H2B inh: 2.9 | FGF22 binding: i | B2AR ag: 6
COc1ccc(S(=O)(=O)N2CCCCC2)cc1NS(=O)(=O)c1ccccc1
  HNF4A DNA FP: -0.2 | Ecoli growth: 0.7 | ALR inh: 3 | UCH37 DUB inh: 0.4 | LANA-H2B inh: 2.1 | FGF22 binding: i | B2AR ag: 0
COc1cc2ccccc2ccc1=NO
  HNF4A DNA FP: -5.5 | Ecoli growth: 0.66 | ALR inh: / | UCH37 DUB inh: 7.8 | LANA-H2B inh: / | FGF22 binding: i | B2AR ag: 2
COc1ccc(CCn2c(NN=C(C)C)nc3c2c(=O)[nH]c(=O)n3C)cc1
  HNF4A DNA FP: 4.1 | Ecoli growth: / | ALR inh: -29 | UCH37 DUB inh: / | LANA-H2B inh: -7.2 | FGF22 binding: i | B2AR ag: 3

Next records follow:
canonical_smiles,HNF4A DNA FP,Ecoli growth,ALR inh,UCH37 DUB inh,LANA-H2B inh,FGF22 binding,B2AR ag
CCc1ccc(NC(=O)Nc2cccc(OC)c2)cc1,-2.9,0.68,-2,1.7,-6.2,i,3
COc1ccc(C2(CNC(=O)c3ccc(OC)c([N+](=O)[O-])c3)CCOCC2)cc1OC,2.1,0.65,-5,3.7,4.4,/,0
CN1C(=O)N(C)C2C1NC(=O)N2C (centres undefined),3.1,0.79,-5,9.0,-1.4,/,3
O=S(=O)(/N=C(\c1ccccc1F)N1CCCCC1)c1ccccc1,0.7,/,-1,/,1.1,/,-1
COc1cccc(/C=N/NC(=O)c2cnn(-c3ccccc3)c2N)c1,-3.0,/,-5,/,-1.5,i,11
COC(=O)C(CC(C)C)N1CCC(=O)c2ccccc2S1(=O)=O (centres undefined),-5.8,0.66,0,-0.4,7.1,i,-1
CCCCCCc1nc(C(N)=O)c2[nH]c(=O)n(-c3ccccc3F)c2n1,1.5,0.69,-3,-6.5,12,/,0
Cc1cccc(C)c1NC(=O)CN(C)C(=O)c1cccc(S(=O)(=O)N2CCN(c3ccccc3)CC2)c1,-7.6,0.72,8,1.8,2.1,i,4
Cc1ccccc1C(=O)N1CCC(C(=O)NCCc2ccc(S(N)(=O)=O)cc2)CC1,2.6,0.68,-2,-1.0,0.7,i,-13
CCN(Cc1ccccc1)C(c1ccncc1)c1nnnn1C(C)(C)C (centres undefined),0.3,0.7,-2,2.7,-3.8,/,0
Cc1cc(NC(=O)CCn2c(=O)sc3ccccc32)no1,-2.9,0.65,-18,3.2,0.4,/,-2
CCN(CC)CCN1C(=O)c2cccc3cc(N)cc(c23)C1=O,-92,0.59,-10,3.8,2.8,i,-31
Cc1cc(C(=O)Nc2nc3ccc(S(C)(=O)=O)cc3s2)c(C)o1,-1.5,0.72,/,4.3,7.2,i,7
O=C(N/N=C/c1cccc(O)c1)c1ccc(NC(=O)C2CCCCC2)cc1,0.7,/,-5,/,-6.5,i,3
Cc1ccc(S(=O)(=O)Nc2cc(C(F)(F)F)ccc2N2CCOCC2)cc1,0.8,0.69,-1,6.3,-1.6,i,-5
